Assay outcomes from PubChem BioAssay.
CtBP-E1A inh = qHTS Assay for Inhibitors of the CtBP/E1A Interaction; CtBP / adenovirus E1A interaction (AlphaScreen); AID 651724, 2012; actives 0.49% (n = 340,000); activity change, % (test concentration not listed); AlphaScreen GST-E1A/His-CtBP binding, 1536-well; stronger effect = lower value; control for the full effect not named in the record; in the data active means activity change below about -65%; inconclusive means about -30% to -65%; inactive means above about -30%; also: % is scaled to controls: 0 for no effect and ±100 for the full control effect; compound concentration not given in the record
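GST-E1A and His-tagged CtBP (125 nM each as 5X stock) were preincubated with pin-transferred compound for 2 h at 37 °C in the dark, then glutathione donor and nickel acceptor beads were added for 1 h before AlphaScreen reading.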
Menin-MLL FL inh = qHTS Assay for Inhibitors Targeting the Menin-MLL Interaction in MLL Related Leukemias: Competition With Fluorescein Labeled MLL-derived Peptide. Fluorescence polarization, fluorescein-MLL peptide displacement from menin. FP activity change, % at 61.4 µM. 290,000 tested, under 10 active; inconclusive = falling polarisation curve, or a change in total fluorescence; inactive = total fluorescence flat and polarisation flat or rising; no compound was filed as active; the % refers to the polarisation; negative = inhibition;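 also: % of control where 0% means no effect; inhibitors lower the polarisation; unlabelled MLL peptide was the positive control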
Sfp inh = qHTS Assay for Inhibitors of Bacillus subtilis Sfp phosphopantetheinyl transferase (PPTase); 4'-phosphopantetheinyl transferase ffp (Bacillus subtilis), Q9F4F7; Biochemical Sfp PPTase activity, qHTS; Potency, µM, for inactives: max response, negative = inhibition, hits mostly inhibitors; actives 3.5% (n = 310,000); active = well fitted inhibition curve with a large enough effect; inconclusive = small, poorly fitted or top-dose-only effect, or another doubt; inactive = no such curve, though single readings can be large or run the other way;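 also: the enzyme is Sfp with the accession as filed and its product quenches rhodamine fluorescence; potency is read from the fitted curve at half-maximal effect; 0% = enzyme reaction without inhibitor and -100% = no enzyme wells; top concentration of the series not given in the record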
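After 15 min at room temperature with compound, 15 nM Sfp received 5 uM rhodamine-CoA plus 12.5 uM BHQ-2-ybbR (50 mM Hepes pH 7.6, 10 mM MgCl2). Rate came from the fluorescence difference over 30 min, ex 525/em 598 nm.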
gsp antag = qHTS for Antagonists of gsp, the Etiologic Mutation Responsible for Fibrous Dysplasia/McCune-Albright Syndrome: qHTS. gsp-mutant cells, cAMP HTRF, 30 min; control for the full effect not named in the record. Potency, µM (highest dose often 76.9 µM), for inactives: at the top dose activity change, negative = inhibition, actives largely listed as inhibitors. actives 0.4% (n = 340,000). AID 624288, 2012; active = falling curve of any shape with a large fitted effect; inconclusive = falling curve, mostly with a smaller effect; inactive = flat or rising curve; cell line not stated here;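 also: intracellular cAMP measured with PDE inhibitor Ro 20-1724 present during compound exposure; potency is read from the fitted curve at half-maximal effect; % is scaled to controls: 0 for no effect and ±100 for the full control effect; nearly all actives have a fitted effect of over 65% in size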
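HTRF cAMP read-out (cAMP-d2 plus anti-cAMP antibody-K in lysis buffer, 30 min RT). Before lysis, cells are exposed to compounds with […] for 30 min at 37C in DPBS containing Ca/Mg, BSA and Tween 20.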
gsp ag = qHTS for Agonist of gsp, the Etiologic Mutation Responsible for Fibrous Dysplasia/McCune-Albright Syndrome: qHTS; Potency, µM (highest dose often 76.9 µM), without a hit: top-dose activation (cAMP increase), most hits filed as activators; AID 624287, 2012; actives 0.13% (n = 340,000); gsp mutant cells, cAMP HTRF, 30 min; control for the full effect not named in the record; active = well fitted activation curve with a large enough effect; inconclusive = small, poorly fitted or top-dose-only effect, or another doubt; inactive = no such curve, though single readings can be large or run the other way; cell line not stated here;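 also: phosphodiesterase inhibitor Ro 20-1724 added with compounds to block cAMP breakdown; potency is read from the fitted curve at half-maximal effect; nearly all actives have a fitted effect of over 60% in size; about a fifth of the inactives were tested at one dose only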
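Cells stably selected in G418 were plated at 2000/well, grown 16-24 hr, then given compounds in DMSO with the PDE inhibitor […] (300 uM solution added) for 30 min at 37C; cAMP was read by HTRF.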
ClpP mod = qHTS Assay for Activators of ClpP | purified B. subtilis ClpP, FRET peptide cleavage, 20 min | actives 1.9% (n = 340,000) | Potency, µM (doses to about 57.5 µM), without a hit: top-dose activity change, negative = active | AID 651965, 2013; active = well fitted falling curve with a large enough effect; inconclusive = small, poorly fitted or top-dose-only effect; inactive = no such curve, though single readings can be large or run the other way; also: potency is read from the fitted curve at half-maximal effect; the source files actives as falling curves though it sought activators and does not explain the sign; nearly all actives have a fitted effect of over 65% in size; many hits overshoot -100%
Target sequence (P80244 whole entry, looked up): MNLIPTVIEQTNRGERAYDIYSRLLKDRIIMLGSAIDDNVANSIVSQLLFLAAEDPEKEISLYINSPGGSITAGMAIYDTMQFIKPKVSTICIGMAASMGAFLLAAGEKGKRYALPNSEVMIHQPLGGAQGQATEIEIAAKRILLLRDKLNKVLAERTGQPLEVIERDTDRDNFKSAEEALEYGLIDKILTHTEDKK
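ClpP 10 microg/mL final, pH 8 Tris/KCl buffer with BSA, glycerol, Tween-20; compound pinned in; FRET-FV substrate; RT 20 min; Ex320/Em430; ΔFRET vs ADEP 5.8 microM, DMSO, no enzyme.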
TRPV1 PAM = HTS Assay for Compounds that Act as Potentiators of the Vanilloid Receptor 1; Transient receptor potential cation channel subfamily V member 1 (Homo sapiens), Q8NER1; TRPV1-expressing cells, Fluo-8 calcium influx, capsaicin EC20 potentiation; host cell line not named in the record; control for the full effect not named in the record; potentiation, % at 8.33 µM; actives 0.02% (n = 320,000); active means potentiation above 80%; inconclusive means 30% to 80%; inactive means below 30%; also: 0% is about no effect
Target sequence (Q8NER1 whole entry, looked up): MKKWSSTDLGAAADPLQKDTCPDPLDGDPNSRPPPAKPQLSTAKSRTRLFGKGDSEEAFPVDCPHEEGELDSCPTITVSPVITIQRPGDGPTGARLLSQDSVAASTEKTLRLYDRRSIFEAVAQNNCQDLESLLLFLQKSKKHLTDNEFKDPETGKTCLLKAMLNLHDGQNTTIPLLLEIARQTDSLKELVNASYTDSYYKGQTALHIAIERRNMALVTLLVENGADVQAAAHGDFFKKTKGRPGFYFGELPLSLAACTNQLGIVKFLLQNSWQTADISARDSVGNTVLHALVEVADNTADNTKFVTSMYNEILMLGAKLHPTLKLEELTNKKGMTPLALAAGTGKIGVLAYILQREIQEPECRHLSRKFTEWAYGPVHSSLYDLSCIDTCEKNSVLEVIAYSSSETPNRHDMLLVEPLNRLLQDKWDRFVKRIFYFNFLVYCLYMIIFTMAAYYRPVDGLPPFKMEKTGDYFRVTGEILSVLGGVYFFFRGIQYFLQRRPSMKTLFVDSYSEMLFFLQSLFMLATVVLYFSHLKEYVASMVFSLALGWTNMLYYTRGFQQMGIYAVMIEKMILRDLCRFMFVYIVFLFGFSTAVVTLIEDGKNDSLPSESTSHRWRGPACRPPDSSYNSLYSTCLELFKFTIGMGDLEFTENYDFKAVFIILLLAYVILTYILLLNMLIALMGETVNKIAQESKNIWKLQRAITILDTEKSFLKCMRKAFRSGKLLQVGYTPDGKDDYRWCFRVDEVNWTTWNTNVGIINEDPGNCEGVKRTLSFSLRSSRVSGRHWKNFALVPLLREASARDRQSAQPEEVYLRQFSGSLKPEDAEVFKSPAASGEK
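Fluo-8 calcium influx in TRPV1-expressing cells, kinetic read (ex 480/em 520 nm). Compound added and read 3 min for agonist activity, followed by capsaicin at EC20 final and 2 min further read for enhancement.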
The depositor's hits bear a star; u = inconclusive; x = no result given; [ ] = another dose, or the depositor's remark.

No.	SMILES	CtBP-E1A inh	Menin-MLL FL inh	Sfp inh	gsp antag
1	COc1cc2[nH]c(=O)n(CCC(=O)NCc3cccnc3)c(=O)c2cc1OC	-4	2.0	24%	10%
2	CC(C)OCCCNC(=O)C1CC(=O)N(C2CCCCCCC2)C1 (stereo not given)	5	3.2	1%	-1%
3	O=C(NCc1ccco1)c1cc(-c2ccc(F)cc2)on1	8	2.8	13%	-4%
4	O=C(CSc1nc2cc(Cl)ccc2o1)NCCc1ccccc1	12	3.2	9%	-36%
5	CCC(=O)N1N=C(c2cccs2)CC1c1ccc(OC)cc1 (stereo not given)	x	1.6	0%	-1%
6	COc1ccc(NC(=O)c2nc(C)n(-c3ccc([N+](=O)[O-])cc3)n2)cc1	-3	-7.3	20%	-8%
7	CCCCNC(=O)CSc1nc2ccc(NC(=O)CSc3nnc(COc4ccccc4C)n3C)cc2s1	13	2.0	0%	-5%
8	CN(C(=O)CSc1nnc(-c2cccnc2)o1)C1CCCCC1	9	x	x	2%
9	O=C(Nc1oc2ccccc2c(=O)c1-c1ccc(Cl)cc1)c1ccco1	-11	3.9	-10%	-14%
10	CC1CCN(CCCNC(=O)C2CCCN(c3ncnc4c3nc3n4CCCCC3)C2)CC1 (stereo not given)	1	-2.2	6%	-5%
11	CCN(CC(=O)Nc1ccccc1C(F)(F)F)C(=O)CCc1nc2sc3c(c2c(=O)[nH]1)CCCC3	-14	x	x	u
12	O=C1C(Cl)=C(N2CCN(Cc3ccccc3)CC2)C(=O)N1Cc1ccccc1	14	u	0%	-6%

No.	gsp ag	ClpP mod	TRPV1 PAM
1	-1%	28µM*	27
2	-21%	-0.4%	13
3	-15%	-2.0%	-3
4	-18%	-0.7%	1
5	-51%[inhibitor]	-28%	-16
6	13%	x	-1
7	-8%	-17%	-6
8	6%	-1.3%	-1
9	8%	-6.7%	1
10	u	x	2
11	u	16µM*	8
12	14%	-2.6%	-2

(listing goes on)
No.	SMILES	CtBP-E1A inh	Menin-MLL FL inh	Sfp inh	gsp antag
13	N#Cc1cc2c(nc1SCc1cccc(Cl)c1)CCCCC2	9	-1.8	3%	1%
14	C[C@@H]1CN([C@@H](C)CO)C(=O)CCCn2nncc2CO[C@H]1CN(C)S(=O)(=O)c1ccccc1F	-18	x	x	x
15	COc1ccc(C(=O)O)cc1S(=O)(=O)NCCCN1CCCC1=O	-1	3.0	2%	-6%
16	CCOC(=O)/C=C1\SCC(=O)N1CC(=O)NCCc1ccc(F)cc1	1	12	19%	1%
17	O=C(NC(C(=O)c1ccccc1)N1CCOCC1)c1cccs1 (stereo not given)	-23	2.5	0%	10%
18	Cc1ccc(-c2noc(COC(=O)c3ccco3)n2)cc1	3	x	x	-11%
19	C/C(=N/NC(=O)CNC(=O)c1cccnc1)c1ccco1	7	-0.9	26%	6%
20	CC(=O)c1ccc(OCC(O)CN2CCN(Cc3ccccc3)CC2)cc1 (stereo not given)	-1	2.0	-13%	2%
21	CC1CCCCN1S(=O)(=O)c1cn(C)c(=O)n(C)c1=O (stereo not given)	3	-2.6	2%	7%
22	O=C(Cc1cccc2ccccc12)N1CCN(c2ncccn2)CC1	5	-1.2	17%	5%
23	Cc1ccccc1-c1nc2c(s1)CCc1onc(-c3cccc([N+](=O)[O-])c3)c1-2	-5	x	x	7%
24	O=[N+]([O-])c1ccc(-c2csc(N/N=C/c3cccnc3)n2)cc1	x	-6.2	-3%	0%

No.	gsp ag	ClpP mod	TRPV1 PAM
13	1%	-4.5%	-2
14	u	-2.4%	x
15	1%	-3.0%	-9
16	-16%[15.4 µM]	x	0
17	11%	-2.6%	-11
18	-7%	1.2%	-1
19	12%[15.4 µM]	x	-4
20	10%	0.3%	x
21	-18%	-0.9%	-7
22	-4%[15.4 µM]	x	-4
23	-25%	-1.1%	19
24	1%	-1.0%	-1

2 records picked at random from those above:
No.	SMILES	CtBP-E1A inh	Menin-MLL FL inh	Sfp inh	gsp antag
17	O=C(NC(C(=O)c1ccccc1)N1CCOCC1)c1cccs1 (stereo not given)	-23	2.5	0%	10%
3	O=C(NCc1ccco1)c1cc(-c2ccc(F)cc2)on1	8	2.8	13%	-4%

No.	gsp ag	ClpP mod	TRPV1 PAM
17	11%	-2.6%	-11
3	-15%	-2.0%	-3

Compound profiles, as listed above. Values in the order: CtBP-E1A inh	Menin-MLL FL inh	Sfp inh	gsp antag	gsp ag	ClpP mod	TRPV1 PAM
Listed for COc1ccc(NC(=O)c2nc(C)n(-c3ccc([N+](=O)[O-])cc3)n2)cc1 : -3	-7.3	20%	-8%	13%	x	-1
Listed for Cc1ccc(-c2noc(COC(=O)c3ccco3)n2)cc1 : 3	x	x	-11%	-7%	1.2%	-1

(cont.)
No.	SMILES	CtBP-E1A inh	Menin-MLL FL inh	Sfp inh	gsp antag
25	O=S(=O)(c1ccc(NC(=S)Nc2ccc3c(c2)OCO3)cc1)N1CCOCC1	1	-3.3	-43%	9%
26	COc1cccc(/C=C2/SC(=O)N(CC(=O)N3CCc4ccccc4C3)C2=O)c1OCC(=O)O	0	-1.5	56µM*	-16%
27	CCCC(=O)NC(c1ccc(Cl)cc1)c1ccc2cccnc2c1O (stereo not given)	-77*	0.2	21%	-5%
28	CN(CC(=O)N1CCN(Cc2ccccc2)CC1)S(=O)(=O)c1cccc2nsnc12	7	-4.2	4%	-9%
29	CCc1ccccc1S(=O)(=O)Cc1ccc(C(=O)N2CCN(c3ccccc3OC)CC2)o1	-3	3.8	-1%	-14%
30	CCn1c(=NC(=O)c2ccc(S(=O)(=O)N(C)C)cc2)sc2cccc(OC)c21	x	-0.7	-14%	8%
31	Cc1cccc(NC(=O)c2cc3ccccc3c(=O)o2)n1	1	x	x	0%
32	CC(C)(C)c1ccc(/C=C/C(=O)c2ccc(NC3=NCCCS3)cc2)cc1	-15	2.4	u	3%
33	O=C(Nc1ccc(NC(=O)c2ccco2)c(Cl)c1)c1ccccc1	x	0.6	17%	6%
34	CC(OC(=O)c1ccc(=O)n(Cc2ccccc2)n1)C(=O)Nc1cccc(Cl)c1 (stereo not given)	7	x	x	-20%
35	O=C(c1ccc(Cn2c(=S)[nH]c3ccc(N4CCOCC4)cc3c2=O)cc1)N1CCC(N2CCCCC2)CC1	-6	0.5	6%	12%
36	COc1ccc(CC(=O)N2CCCc3ccccc32)cc1	1	2.3	-9%	-11%

No.	gsp ag	ClpP mod	TRPV1 PAM
25	2%	-1.2%	0
26	u	-0.8%	-2
27	1%	x	2
28	u	2.4%	-5
29	6%	-2.5%	5
30	u	-6.9%	-2
31	0%[15.4 µM]	x	x
32	-38%[inhibitor]	-3.7%	-1
33	-7%	-17%	13
34	24%	0.8%	7
35	-6%[15.4 µM]	x	-7
36	-14%	-0.4%	10

Additional results follow.
No.	SMILES	CtBP-E1A inh	Menin-MLL FL inh	Sfp inh	gsp antag
37	CCC(CO)Oc1cc(NCc2ccncc2)c2ncn(C(C)C)c2c1 (stereo not given)	4	x	x	-4%
38	FC(F)c1nc2nc(Cl)c(Cl)nc2[nH]1	6	x	x	x
39	O=C(CN1CCN(c2ccc(C(F)(F)F)cn2)CC1)Nc1ccc2c(c1)OCO2	14	3.5	8%	12%
40	COc1ccc2[nH]c3nc(SC(C)C)nnc3c2c1	-13	-0.1	18%	2%
41	CCc1ccc(OCC(=O)N/N=C(\C)c2ccccc2OC(F)F)cc1	12	3.7	-8%	-13%
42	C=CCNC(=O)NC(=O)COC(=O)CNS(=O)(=O)c1ccc(F)c(F)c1F	x	4.3	10%	-3%
43	COC(=O)CNC(=O)c1cc(-c2ccncc2)nc2ccccc12	-5	4.7	9%	-4%
44	COc1ccc(CCNC(=O)NC2CCCCC2)cc1	4	3.6	-3%	0%
45	C=C(C)C(=O)Nc1cccnc1Oc1ccc(F)cc1	-2	-0.6	6%	5%
46	Cc1ccc(S(=O)(=O)NC(CC(=O)O)c2ccc(F)cc2)cc1 (stereo not given)	7	0.8	23%	6%
47	CCCOC(=O)c1ccc(Oc2cn[nH]c2-c2ccc(O)cc2O)cc1	-12	5.0	11%	-15%
48	O=C(CSc1n[nH]c(=O)n1Cc1ccccc1)Nc1ccc(F)c(F)c1F	-1	u	u	6%

No.	gsp ag	ClpP mod	TRPV1 PAM
37	9%	0.5%	x
38	u	-27%	x
39	-20%	0.2%	2
40	3%	-4.9%	u
41	-26%	1.3%	-30
42	2%	-2.1%	-1
43	-10%[15.4 µM]	x	-6
44	-46%[inhibitor]	-0.6%	-8
45	-17%[15.4 µM]	-1.6%	-4
46	5%	x	7
47	-6%	-2.4%	-10
48	1%	x	10

3 structures already listed, sorted by length of the SMILES, lowest first:
No.	SMILES	CtBP-E1A inh	Menin-MLL FL inh	Sfp inh	gsp antag
40	COc1ccc2[nH]c3nc(SC(C)C)nnc3c2c1	-13	-0.1	18%	2%
37	CCC(CO)Oc1cc(NCc2ccncc2)c2ncn(C(C)C)c2c1 (stereo not given)	4	x	x	-4%
47	CCCOC(=O)c1ccc(Oc2cn[nH]c2-c2ccc(O)cc2O)cc1	-12	5.0	11%	-15%

No.	gsp ag	ClpP mod	TRPV1 PAM
40	3%	-4.9%	u
37	9%	0.5%	x
47	-6%	-2.4%	-10

Further compounds
No.	SMILES	CtBP-E1A inh	Menin-MLL FL inh	Sfp inh	gsp antag
49	Cc1ccc(NC(=O)COC(=O)Cc2cccs2)cc1S(=O)(=O)N1CCOCC1	9	x	16%	5%
50	COc1ccc(C(=O)OCn2nnc3ccccc3c2=O)cc1[N+](=O)[O-]	x	1.4	-9%	-1%
51	CCOc1ccccc1NC(=O)c1cccc(NC(=O)C(C)C)c1	x	0.7	6%	-15%
52	Nc1cc(C(F)(F)F)ccc1NCCc1ccccn1	-7	1.4	-1%	4%

No.	gsp ag	ClpP mod	TRPV1 PAM
49	16%[15.4 µM]	-2.4%	-11
50	0%[15.4 µM]	x	-9
51	5%	0.7%	9
52	-31%	x	u
